# Choline anaer gr: growth inhibitors of anaerobic choline-fed gram-negatives, minimal medium, absorbance; 0.2% of 55,000 active; AID 1963822, 2024; Gram-negative bacterium anaerobic choline minimal medium; hits give low values; many inactives read as strong as hits in the columns shown; calls only;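 active = growth z-score on choline under -2 at 7 or 20 h with little or no fall on glycerol, limits in tiers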;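 note: stock transfer was 300 nL into about 50 µL; the organism is E. coli; final concentration not given here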
# Choline anaer gr early: recorded beside Choline anaer gr, whose call it bears; z-score; measured here: choline growth z-score, timepoint 1;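 score of optical density at 7 h as mean of two plates; lower means less growth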
# * marks the source's active call; other numbers are inactive results; i = inactive; & = joins results of further samples. The list is partial; the hit share may differ from the screen's.
> CC1(C)C(O[C@H]2OC(C(=O)O)C(O)C(O)C2O[C@@H]2OC(C(=O)O)C(O)C(O)C2O)CC[C@@]2(C)[C@H]3C(=O)C=C4[C@@H]5C[C@@](C)(C(=O)O)CC[C@]5(C)CC[C@@]4(C)[C@]3(C)CC[C@@H]12 (stereo partly drawn)
  Choline anaer gr: i
  Choline anaer gr early: 0.63

> CN(C(=O)CCCOc1ccc2[nH]c(=O)ccc2c1)C1CCCCC1
  Choline anaer gr: i
  Choline anaer gr early: 0.84&0.59&0.53

> CC1CC2C3CC(F)C4=CC(=O)C(Cl)=C[C@]4(C)[C@@]3(F)C(O)C[C@]2(C)[C@@]1(O)C(=O)CO (stereo partly drawn)
  Choline anaer gr: i
  Choline anaer gr early: -1.29

> CC(=O)c1ccc(S(=O)(=O)NC(=O)NC2CCCCC2)cc1
  Choline anaer gr: i
  Choline anaer gr early: 0.28&0.11

> CN1CCN(C(c2ccccc2)c2ccccc2)CC1
  Choline anaer gr: i
  Choline anaer gr early: -0.02&0.44

> CC1COc2c(N3CCN(C)CC3)c(F)cc3c(=O)c(C(=O)O)cn1c23 (stereo not drawn)
  Choline anaer gr: i
  Choline anaer gr early: -2.39&0.46&0.68&-3.21

> NC(=O)c1cn(Cc2c(F)cccc2F)nn1
  Choline anaer gr: i
  Choline anaer gr early: -0.24&1

> O=C(O)c1ccc[n+]([O-])c1
  Choline anaer gr: i
  Choline anaer gr early: -0.66

> CC1=CC(=O)NS(=O)(=O)O1
  Choline anaer gr: i
  Choline anaer gr early: -0.18&0.33

> Cc1cc(-c2ccccc2)nnc1NCCN1CCOCC1
  Choline anaer gr: i
  Choline anaer gr early: 0.67

> CCN(CC)CCn1c(=O)c(Cc2ccc(OC)cc2)nc2ccccc21
  Choline anaer gr: i
  Choline anaer gr early: 0.82

> CC(=O)Nc1ccc(C(=O)O)cc1
  Choline anaer gr: i
  Choline anaer gr early: 0.43

> N[C@@H](CC(=O)Nc1ccc(Oc2cc(F)c(F)cc2Br)cc1)C(=O)O
  Choline anaer gr: i
  Choline anaer gr early: 0.32

> Cn1c(=O)cc(N2CCCC(N)C2)n(Cc2ccccc2C#N)c1=O (stereo not drawn)
  Choline anaer gr: i
  Choline anaer gr early: 0.41

> COCCCOc1cc(C[C@@H](C[C@H](N)[C@@H](O)C[C@H](C(=O)NCC(C)(C)C(N)=O)C(C)C)C(C)C)ccc1OC
  Choline anaer gr: i
  Choline anaer gr early: 0.83

# Single records (already shown).
# CC(=O)Nc1ccc(C(=O)O)cc1 across the screens: Choline anaer gr = i; Choline anaer gr early = 0.43
# O=C(O)c1ccc[n+]([O-])c1 across the screens: Choline anaer gr = i; Choline anaer gr early = -0.66
# CC1CC2C3CC(F)C4=CC(=O)C(Cl)=C[C@]4(C)[C@@]3(F)C(O)C[C@]2(C)[C@@]1(O)C(=O)CO (stereo partly drawn) across the screens: Choline anaer gr = i; Choline anaer gr early = -1.29

# Following part:
> CC=CC(=O)N(CC)c1ccccc1C
  Choline anaer gr: i
  Choline anaer gr early: 0.48

> CC(C)OCCCNC(=O)C1CCN(c2ncnc3c2oc2ccccc23)CC1
  Choline anaer gr: i
  Choline anaer gr early: -0.09

> C=CC1=C(C(=O)O)N2C(=O)[C@@H](NC(=O)/C(=N\O)c3csc(N)n3)[C@H]2SC1 (stereo in doubt)
  Choline anaer gr: i
  Choline anaer gr early: -2.6

> C#C[C@]1(O)CCC2C3CCC4=CC(=O)CCC4C3CC[C@@]21CC (stereo partly drawn)
  Choline anaer gr: i
  Choline anaer gr early: 0.31

> COc1ccc(/C=C/C(=O)Nc2ccccc2C(=O)O)cc1OC
  Choline anaer gr: i
  Choline anaer gr early: 0.66&1.07&0.37&-0.39&-0.07

> CC(N)C1CCC(C(=O)Nc2ccncc2)CC1 (stereo not drawn)
  Choline anaer gr: i
  Choline anaer gr early: 0.14

> Cc1ccc(Cn2c(CN3CCC(C(=O)NCc4ccccn4)CC3)cc3ccccc32)cc1
  Choline anaer gr: i
  Choline anaer gr early: 0

> Cc1ccc(OCC(O)Cn2c(C3CC3)nc3ccccc32)cc1 (stereo not drawn)
  Choline anaer gr: i
  Choline anaer gr early: -0.55

> O=C(NC1CCN(Cc2ccccc2)CC1)C1CCCN(c2ncnc3c2oc2ccccc23)C1 (stereo not drawn)
  Choline anaer gr: i
  Choline anaer gr early: 0.55

> CCCNC(C)C(=O)Nc1c(C)csc1C(=O)OC (stereo not drawn)
  Choline anaer gr: i
  Choline anaer gr early: 0.11&0.08

> O=C(CCNNC(=O)c1ccncc1)NCc1ccccc1
  Choline anaer gr: i
  Choline anaer gr early: -0.03&0.18&-0.14

> OCCN1CCN(CCCN2c3ccccc3Sc3ccc(Cl)cc32)CC1
  Choline anaer gr: i
  Choline anaer gr early: 0.48&-0.45

> Cc1c(NC(=O)c2cccnc2)c(=O)n(-c2ccccc2)n1C
  Choline anaer gr: i
  Choline anaer gr early: 1.01

> COc1cc(OC)c(NC(=O)N2CCCC(C)(C(=O)NCc3ccc(C)cc3)C2)cc1Cl (stereo not drawn)
  Choline anaer gr: i
  Choline anaer gr early: -1.01

> CC(C(=O)O)c1ccc(C(=O)c2cccs2)cc1 (stereo not drawn)
  Choline anaer gr: i
  Choline anaer gr early: 0.38&-0.06

> CCN(CC)CCNC(=O)c1cc(Cl)c(N)cc1OC
  Choline anaer gr: i
  Choline anaer gr early: 0.87&1.08&0.03

> Cc1cc(NC(=O)c2cccc(NC(=O)C=CCN(C)C)c2)ccc1Nc1nccc(-c2cccnc2)n1
  Choline anaer gr: i
  Choline anaer gr early: 1.08

> COc1ccc(C(=O)NCc2ccc(OCCN(C)C)cc2)cc1OC
  Choline anaer gr: i
  Choline anaer gr early: 0.38&-0.03&-2.18&-0.22

> CC(=O)OC1CCN(C(=O)C(C)(C)C)CC1
  Choline anaer gr: i
  Choline anaer gr early: 0.1

> CCOC(=O)c1ccc(N)cc1
  Choline anaer gr: i
  Choline anaer gr early: 0.21&0.82

> Cc1[nH]n2c(=O)cc(-c3ccc(Cl)cc3)nc2c1-c1ccccc1
  Choline anaer gr: i
  Choline anaer gr early: -0.07

> COc1ccc(C2=NC(c3ccc(Cl)cc3)C(c3ccc(Cl)cc3)N2C(=O)N2CCNC(=O)C2)c(OC(C)C)c1 (stereo not drawn)
  Choline anaer gr: i
  Choline anaer gr early: -0.19

> CN(C)CCOC(C)(c1ccccc1)c1ccccn1 (stereo not drawn)
  Choline anaer gr: i
  Choline anaer gr early: 0.13&0.78&-0.88&0.54

> CN1CCOC(c2ccccc2)c2ccccc2C1 (stereo not drawn)
  Choline anaer gr: i
  Choline anaer gr early: 0.61

> CCn1c(N)c(C(=O)NC)c(=O)c2ccc(C#C[C@@](C)(O)COC)nc21
  Choline anaer gr: i
  Choline anaer gr early: 0.44

> CCCSc1nc(NC2CC2c2ccc(F)c(F)c2)c2nnn(C3CC(OCCO)C(O)C3O)c2n1 (stereo not drawn)
  Choline anaer gr: i
  Choline anaer gr early: 0.43

> CCc1ccc(S(=O)(=O)Nc2cccc(-c3cn4c(C)cccc4n3)c2)cc1
  Choline anaer gr: i
  Choline anaer gr early: 0.4

> c1ccc(CN(CC2=NCCN2)c2ccccc2)cc1
  Choline anaer gr: i
  Choline anaer gr early: 0.07&1.48&0.49

> COc1ccccc1N1CCN(CCCNc2cc(=O)n(C)c(=O)n2C)CC1
  Choline anaer gr: i
  Choline anaer gr early: 0.26&0.29&0.37&-0.91&0.77

> CC(COc1ccccc1)NC(C)C(O)c1ccc(O)cc1 (stereo not drawn)
  Choline anaer gr: i
  Choline anaer gr early: 0.86

> NC(N)=NCCC[C@H](N)C(=O)O
  Choline anaer gr: i
  Choline anaer gr early: -0.29

> O=C(c1ccc(F)cc1)C1CCN(CCn2c(=O)[nH]c3ccccc3c2=O)CC1
  Choline anaer gr: i
  Choline anaer gr early: 0.58&-0.26&-0.84

> Oc1ccc(/C=C/c2cc(O)cc(O)c2)cc1
  Choline anaer gr: i
  Choline anaer gr early: -1.95&-0.59&-0.92

> CCCCC(O)c1ccccc1 (stereo not drawn)
  Choline anaer gr: i
  Choline anaer gr early: 0.27

> C[C@]12CCC(=O)C=C1CC[C@@H]1[C@@H]2CC[C@@]2(C)[C@H]1CC[C@]2(O)C(=O)CO
  Choline anaer gr: i
  Choline anaer gr early: 0.48

> O=C(c1ccc(C(=O)N2CCC(N3CCCC3)CC2)c(Nc2ccccc2)c1)N1CCC(N2CCCC2)CC1
  Choline anaer gr: i
  Choline anaer gr early: -0.2

> O=C(O)CCC/C=C\C[C@@H]1[C@@H](CCC(=O)CCc2ccccc2)[C@H](O)C[C@@H]1O
  Choline anaer gr: i
  Choline anaer gr early: 1.09

> O=c1c2cc3c(cc2nc(SCc2nc(-c4ccccc4)no2)n1Cc1ccncc1)OCO3
  Choline anaer gr: i
  Choline anaer gr early: -0.17

> O=c1[nH]c2cc(C(F)(F)F)c(N3CCOCC3)cc2n(CP(=O)(O)O)c1=O
  Choline anaer gr: i
  Choline anaer gr early: 0.62

> COc1cc2c(cc1OC)C(=O)C(CC1CCN(Cc3ccccc3)CC1)C2 (stereo not drawn)
  Choline anaer gr: i
  Choline anaer gr early: 0.28&0.54

> C#C[C@@]1(O)CC[C@H]2[C@@H]3CCC4=CC(=O)CC[C@@H]4[C@@H]3CC[C@@]21CC
  Choline anaer gr: i
  Choline anaer gr early: 0.79

> CCOc1ccc(CNC(=O)c2snc(C(=O)NCc3ccc(F)cc3)c2N)cc1
  Choline anaer gr: i
  Choline anaer gr early: 0.68

> CCC(C)n1ncn(-c2ccc(N3CCN(c4ccc(OCC5COC(Cn6cncn6)(c6ccc(Cl)cc6Cl)O5)cc4)CC3)cc2)c1=O (stereo not drawn)
  Choline anaer gr: i
  Choline anaer gr early: 0.72&0.79&0.71

> CCOC(=O)C(CCc1ccccc1)NC(C)C(=O)N1Cc2ccccc2CC1C(=O)O (stereo not drawn)
  Choline anaer gr: i
  Choline anaer gr early: -0.35

> O=C(O)CCC/C=C\C[C@@H]1[C@@H](CC[C@@H](O)CCc2ccccc2)[C@H](O)C[C@@H]1O
  Choline anaer gr: i
  Choline anaer gr early: 0.23

> c1coc(-c2nc3ccccc3c3nnc(SCc4cn5ccccc5n4)n23)c1
  Choline anaer gr: i
  Choline anaer gr early: 1.72

> CCCn1cnc2c1c(=O)n(CCCCC(C)=O)c(=O)n2C
  Choline anaer gr: i
  Choline anaer gr early: 0.28

> CCCCCCCCCCCCCCC[C@H](O)[C@H](N)CO
  Choline anaer gr: i
  Choline anaer gr early: 0.02

> O=C(NC1CC1)C1CCN(c2cncnc2N2CCCCC2)CC1
  Choline anaer gr: i
  Choline anaer gr early: -0.27

> CC(=O)c1ccc2c(c1)N(CCCN(C)C)c1ccccc1S2
  Choline anaer gr: i
  Choline anaer gr early: -0.1&-0.38

> CCOc1ccc(C(=O)NCc2noc(-c3ccc(OC)cc3)n2)cc1
  Choline anaer gr: i
  Choline anaer gr early: 1.01

> COc1ccccc1-c1noc(CCn2nc(-c3ccccc3)ccc2=O)n1
  Choline anaer gr: i
  Choline anaer gr early: -0.31

> O=C(NCCc1c[nH]c2ccccc12)c1cccnc1
  Choline anaer gr: i
  Choline anaer gr early: 0.1

> CCn1c(C(=O)NCCCOC(C)C)cc2c(=O)oc3ccccc3c21
  Choline anaer gr: i
  Choline anaer gr early: 0.98

> COc1ccc(C(=O)CC(=O)c2ccc(C(C)(C)C)cc2)cc1
  Choline anaer gr: i
  Choline anaer gr early: 0.81

> COc1ccc(C=CC(=O)Nc2ccccc2C(=O)O)cc1OC
  Choline anaer gr: i
  Choline anaer gr early: 0.29

> Cn1c(=O)c2c(ncn2CC2OCCO2)n(C)c1=O
  Choline anaer gr: i
  Choline anaer gr early: 0.13&0.4&0.03

> C1CCC(C(CC2CCCCN2)C2CCCCC2)CC1 (stereo not drawn)
  Choline anaer gr: i
  Choline anaer gr early: 0.23

> Cc1nc2ccccn2c(=O)c1CCN1CCC(C(=O)c2ccc(F)cc2)CC1
  Choline anaer gr: i
  Choline anaer gr early: -0.17&0.25&-0.16

> NC(=O)c1cccc(-c2cc(Nc3ccc(OC(F)(F)F)cc3)ncn2)c1
  Choline anaer gr: i
  Choline anaer gr early: -0.43

> Cc1cc(Nc2ncc(Cl)c(Nc3ccccc3S(=O)(=O)C(C)C)n2)c(OC(C)C)cc1C1CCNCC1
  Choline anaer gr: i
  Choline anaer gr early: -2.04

> c1ccc(CC2=NCCN2)cc1
  Choline anaer gr: i
  Choline anaer gr early: 0.53&0.71

> COc1ccc(S(=O)(=O)N2c3ccc(Cl)cc3[C@](O)(c3ccccc3Cl)[C@@H]2C(=O)N2CCC[C@H]2C(N)=O)cc1OC
  Choline anaer gr: i
  Choline anaer gr early: 0.45

> O=S(=O)(c1cccc2cnccc12)N1CCCNCC1
  Choline anaer gr: i
  Choline anaer gr early: 0.79&0.31&0.42&-0.2

> C[C@@H](N)C1CCC(C(=O)Nc2ccncc2)CC1 (stereo partly drawn)
  Choline anaer gr: i
  Choline anaer gr early: 0.5

# In the list so far, these contain a tert-butyl group.
> CC(=O)OC1CCN(C(=O)C(C)(C)C)CC1
  Choline anaer gr: i
  Choline anaer gr early: 0.1

> COc1ccc(C(=O)CC(=O)c2ccc(C(C)(C)C)cc2)cc1
  Choline anaer gr: i
  Choline anaer gr early: 0.81

# Taken from the results shown (7 entries):
> COc1ccc(C=CC(=O)Nc2ccccc2C(=O)O)cc1OC
  Choline anaer gr: i
  Choline anaer gr early: 0.29

> Cn1c(=O)c2c(ncn2CC2OCCO2)n(C)c1=O
  Choline anaer gr: i
  Choline anaer gr early: 0.13&0.4&0.03

> C1CCC(C(CC2CCCCN2)C2CCCCC2)CC1 (stereo not drawn)
  Choline anaer gr: i
  Choline anaer gr early: 0.23

> Cc1nc2ccccn2c(=O)c1CCN1CCC(C(=O)c2ccc(F)cc2)CC1
  Choline anaer gr: i
  Choline anaer gr early: -0.17&0.25&-0.16

> NC(=O)c1cccc(-c2cc(Nc3ccc(OC(F)(F)F)cc3)ncn2)c1
  Choline anaer gr: i
  Choline anaer gr early: -0.43

> Cc1cc(Nc2ncc(Cl)c(Nc3ccccc3S(=O)(=O)C(C)C)n2)c(OC(C)C)cc1C1CCNCC1
  Choline anaer gr: i
  Choline anaer gr early: -2.04

> c1ccc(CC2=NCCN2)cc1
  Choline anaer gr: i
  Choline anaer gr early: 0.53&0.71
